Source: PubChem (several laboratories)
RN4220 kill: S. aureus RN4220 growth inhibition. OD600, 16 h. inhibition, % (concentration not given with the values). 0.33% of 330,000 active. AID 1259311;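 active means z-score of -3 or lower and OD600 up to 0.18 on both plates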;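 further: plate controls were untreated cells for no effect and reference antibiotic for full effect; stock transfer was 100 nL into about 80 µL; one replicate is shown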
Sa ugtP lethal: compounds lethal to S. aureus RN4220 ugtP deletion mutant | OD600 growth, 16 h; some inactives read as strong as hits | growth inhibition, % (concentration not given with the values) | 0.54% of 330,000 active | AID 1259309;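 active means z-score under -3 and OD600 up to 0.15 on both plates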;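 further: plate controls were untreated wells for no effect and antibiotic for full effect; wells of about 80 µL received 100 nL stock; the first replicate is given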
PrP 5UTR inh: suppresses PrP 5' UTR mRNA reporter expression | cell-based PrP 5' UTR mRNA reporter, plate reader | inhibition, % (test concentration not listed) | 0.35% of 340,000 active;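 active means every replicate at 50% or more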;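 further: 0 = median of the neutral control wells; tested in H4 reporter cells; numbers are from one replicate; inactives centre near -14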
BJeLR viability: BJeLR cell viability loss. BJeLR (HRASV12) viability, CellTiter-Glo ATP luminescence, 48 h; reference of the scale not given here. inhibition, % (test concentration not listed). 0.17% of 300,000 active. AID 1554;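 active means replicate mean above 50%; inconclusive means above 50% but judged a plate artefact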;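 further: 50 nL library stock added to about 25 µL; numbers are from one replicate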
Mtb hypoxia rep: Mtb hypoxia fluorescent reporter inhibition; fluorescence inhibition, % (concentration not given with the values); M. tuberculosis hypoxia-regulated fluorescent reporter, fluorescence; 0.1% of 300,000 active;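 active means 35 to 45% if threefold the growth effect, above 45% if 1.5-fold the growth effect; inactive means the rest, general growth blockers included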;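 further: wells of about 50 µL received 100 nL stock; 0% = vehicle wells and 100% = reference inhibitor wells; whole bacteria with a GFP reporter of the hypoxia response; strong numbers were not always called active; many hits fall short of the cut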
Bead autofluor: flagged as autofluorescent in microsphere protease counterscreen; compound autofluorescence counterscreen, microsphere flow cytometry; hits give high values; fluorescence intensity (concentration not given with the values); 3.1% of 360,000 active;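 active means at least 3 SD above the mean of all compounds, about 16000 in these data; inconclusive means too few beads counted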;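 further: 100 nL of 1 mM stock went into each well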
Mtb hypoxia rep growth: further read-out of Mtb hypoxia rep, marked with its call; growth inhibition, %; measured here: M. tuberculosis growth (absorbance);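 0% = vehicle and 100% = reference antibiotic; read after six days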
Starred values were filed as active, the others as inactive; ? = inconclusive; / = not tested or not shown.

Each structure is followed by: BJeLR viability	Sa ugtP lethal	Bead autofluor	Mtb hypoxia rep	Mtb hypoxia rep growth	RN4220 kill	PrP 5UTR inh
COC(=O)c1ccc(NC(=O)Cn2nnc3ccccc32)cc1
 : -10	-4	4501	/	/	-1.5	-103
Oc1ccc(N=Nc2ccccc2)o1
 : 24	5	3265	6	4	1.9	-28
O=C(NNCc1ccccc1)c1ccccc1
 : /	-3	3622	18	15	0.7	4
CCN(CC(=O)Nc1ccc(OC)cc1)C(=O)Cc1ccc(OC)c(S(=O)(=O)N2CCOCC2)c1
 : /	3	8235	-11	-2	2.7	-8
NS(=O)(=O)c1ccc(NC(=O)c2cc(-c3cc(Cl)ccc3O)n[nH]2)cc1
 : -2	-3	4264	13	4	5.4	-12
COc1ccc(C(=O)NCC(c2ccco2)N2CCc3ccccc32)cc1OC (configuration not stated)
 : 9	4	?	3	8	-0.5	-4
CN(C(=O)COC(=O)c1ccc2c(c1)OCCO2)C1CCCCC1
 : /	8	?	-6	-1	3.3	-18
CCN(C(=O)COc1ccc(C)cc1OC)c1cccc2ccccc12
 : /	-4	3482	10	2	4.7	-13
COCCn1c(C)cc2c(c1=O)C(c1ccccc1F)C(C#N)=C(N)O2 (configuration not stated)
 : -4	/	20039*	/	/	/	-21
CC(=O)Nc1cccc(OCC(O)Cn2c(C)nc3ccccc32)c1 (configuration not stated)
 : 3	11	?	0	-1	3.6	-3
CCOC(=O)N1CCN(C(=O)C2CCC(CNS(=O)(=O)c3ccc(Cl)cc3)CC2)CC1 (configuration not stated)
 : 7	-4	2780	8	7	-7.3	-4
CCOc1ccc(N(C(=O)/C=C/C(=O)Nc2cc(C)on2)C(C(=O)NC2CCCC2)c2ccccc2C)cc1 (configuration not stated)
 : 10	-12	10676	2	6	1.9	-17
C/C(=N/NC(=O)c1ccccc1O)c1ccc(N2C(=O)C3CCCCC3C2=O)cc1 (configuration not stated)
 : -3	/	3856	/	/	/	-15
Cc1nn(CC(=O)N2CCN(c3ccccc3)CC2)c(=O)c2cccn12
 : -7	0	4293	10	11	-6.5	-19
COc1ccc(C(=O)N2CCCC(CCC(=O)NCc3ccc(F)c(F)c3)C2)o1 (configuration not stated)
 : 3	7	4360	0	-2	4.7	-31
O=C1CCN(Cc2ccccc2)CCN1[C@H](CO)Cc1ccccc1
 : 7	/	3674	/	/	/	-9
CCn1c(C)nc2cc(C(=O)NN=C(C)c3ccc(N4CCOCC4)cc3)ccc21
 : /	-2	/	3	6	0.4	/
CC1CCN(C(=O)COc2cccc3c2CCN(C)C3=O)CC1
 : 0	4	4759	2	5	5.3	-16
CN1CCc2nc3ccc(Cl)cc3c(-c3ccccc3Cl)c2C1
 : 2	14	2605	4	-1	1.0	-8
C/C(=N\N1CCCCCC1)c1c(O)n(-c2ccc(Cl)cc2)c(=O)[nH]c1=O
 : 1	-2	4156	3	9	1.7	-14

Rewritten field by field: two of the compounds above
Structure: COc1ccc(C(=O)NCC(c2ccco2)N2CCc3ccccc32)cc1OC (configuration not stated)
  BJeLR viability: 9; Sa ugtP lethal: 4; Bead autofluor: ?; Mtb hypoxia rep: 3; Mtb hypoxia rep growth: 8; RN4220 kill: -0.5; PrP 5UTR inh: -4
Structure: CN(C(=O)COC(=O)c1ccc2c(c1)OCCO2)C1CCCCC1
  BJeLR viability: /; Sa ugtP lethal: 8; Bead autofluor: ?; Mtb hypoxia rep: -6; Mtb hypoxia rep growth: -1; RN4220 kill: 3.3; PrP 5UTR inh: -18

The list continues:
Each structure is followed by: BJeLR viability	Sa ugtP lethal	Bead autofluor	Mtb hypoxia rep	Mtb hypoxia rep growth	RN4220 kill	PrP 5UTR inh
O=S(=O)(c1ccc(N2CCOCC2)c(Cl)c1)N1CCOCC1
 : 3	0	4115	-8	10	0.3	-23
COc1ccc(CC(=O)Nc2ncc([N+](=O)[O-])s2)cc1OC
 : /	8	3211	-2	2	17	-66
CC(C)=NOc1nc(NC(=O)NS(=O)(=O)c2ccccc2Cl)nc(N(C)C)n1
 : 1	13	/	2	3	4.8	-9
COC(=O)C1=CN(CC2CCCO2)C=C(C(=O)OC)C1c1ccccc1C(F)(F)F (configuration not stated)
 : 8	3	4252	/	/	2.4	-15
Cc1nn(CC(=O)N(C)Cc2ccc(F)cc2)c(C)c1[N+](=O)[O-]
 : 0	2	2555	14	2	-0.1	-13
CC(C)n1c(CSCc2ccc(Cl)cc2Cl)n[nH]c1=S
 : 0	-8	4466	8	3	4.9	5
CC1=C(c2ccc(F)cc2)[N+](=O)C(C)(C)N1[O-]
 : 7	1	3440	-5	0	2.2	0
CC(=NNC(=O)c1ccccc1)c1cccc(Br)c1
 : /	4	/	14	13	2.3	/
O=C(O)/C=C/C(=O)NCCNc1ncc(C(F)(F)F)cc1Cl
 : -5	8	2460	7	1	1.7	-16
CCCCC1CN=C(N)N1CC(C)(C)C (configuration not stated)
 : /	1	/	7	5	4.8	/
COc1cccc(C(=O)NCCS(=O)(=O)NCc2ccccn2)c1
 : -3	4	?	8	1	4.0	-26
O=C(N/N=C1/CN2CCC1CC2)c1cccc(O)c1
 : -8	/	3728	/	/	/	-17
COc1ccccc1C(C#N)c1cccc(Cl)n1 (configuration not stated)
 : 11	1	3142	19	-7	3.5	-50
Cc1ccccc1-n1c(C)nnc1SCc1nc2ccccc2s1
 : -5	2	11103	15	16	0.3	-27
CC(C)c1ccccc1OCCCN1CCCC1
 : -3	8	4203	17	3	4.0	-16
CC(=O)n1cc(CO)c2ccccc21
 : -5	-4	5313	/	/	-0.4	-10
COCCCN(C(=S)NC(=O)c1ccc(Br)cc1)c1c(N)n(Cc2ccccc2)c(=O)[nH]c1=O
 : 2	0	4520	9	8	3.1	-7
Cn1c(CCNC(=O)c2ccccc2)nc2ccccc21
 : 3	-2	5859	1	9	2.1	-18
CSCCCN1CCCC(CO)(Cc2ccccc2F)C1 (configuration not stated)
 : 3	0	/	3	-5	-0.4	4
O=C(NC1CCCC1)c1ccccc1-c1nc2ccccc2[nH]1
 : -1	-3	2953	14	-2	-6.1	-14
O=C(c1cccc(-n2cccc2)c1)N1CCN(S(=O)(=O)c2ccc(F)cc2)CC1
 : 10	-9	5974	0	13	-2.5	-8
COc1cccc(-c2ccc3nnc(SCC(=O)N4CCCC4)n3n2)c1
 : -5	12	/	4	5	2.7	-5
Cc1nc2sc(C(c3ccco3)N3CCN(c4ccc(F)cc4)CC3)c(O)n2n1 (configuration not stated)
 : -9	-4	5787	5	2	-6.7	-12
COc1ccc(C(=S)N2CCN(c3ccccc3Cl)CC2)cc1OC
 : -2	-1	3224	-2	-16	3.1	-29
O=C(OCC(=O)N1CCc2ccccc21)C1CCCN1S(=O)(=O)c1ccc(Cl)cc1 (configuration not stated)
 : /	-3	3639	-5	8	-2.4	-25
O=Cc1cccn1-c1ccc2ccccc2c1
 : 5	3	4904	3	12	7.0	-20
O=C(CC12CC3CC(CC(C3)C1)C2)NCC(=O)OCc1cc(=O)oc2ccc3ccccc3c12
 : 4	-27	2308	-4	1	-9.1	-12
CCS(=O)(=O)Nc1cccc(C2=NN(S(=O)(=O)c3ccc(F)cc3)C(c3cccs3)C2)c1 (configuration not stated)
 : 16	4	2915	5	7	6.8	0
O=S(=O)(c1ccccc1)c1nc(-c2ccco2)oc1NCc1ccco1
 : 7	2	2431	/	/	0.5	3
CC(CN1CCCCC1)OC(=O)C1c2ccccc2Oc2ccccc21 (configuration not stated)
 : -19	1	3899	4	1	3.1	-15
O=C(NCCCN1CCCC1)c1ccc2c(c1)N(Cc1cccc(Cl)c1)C(=O)c1ccccc1S2=O (configuration not stated)
 : 13	-3	4083	-1	2	-5.3	10
O=C(NN=CC1CC=CCC1)c1ccc(Br)o1 (configuration not stated)
 : /	3	/	11	0	3.9	/
C[n+]1cc[nH]c1SCC(=O)c1ccc(Cl)cc1
 : 2	4	4612	6	-15	2.7	-19
Cc1nn(C)c(Oc2cccc(Cl)c2)c1C#N
 : -2	3	2412	-2	2	5.8	-29
CCCN1C(=O)c2cc(C(=O)O)ccc2C1O (configuration not stated)
 : -8	-4	6386	1	1	-15	-6
COc1cc(OC)cc(-c2cn[nH]c2N)c1
 : 2	3	3725	10	9	8.1	-20
O=C(NCc1ccccn1)c1cccc(S(=O)(=O)N2CCCCC2)c1
 : /	4	/	10	2	-0.7	/
O=C(/C=C\Nc1ccc2c(c1)OCO2)c1ccc(Cl)s1
 : -6	5	4355	0	8	-5.2	-36
CN(Cc1ccccc1)c1ccc(S(=O)(=O)N2CCOCC2)cn1
 : -3	1	3760	10	1	11	-6
CC(=O)c1c(C)[nH]c(C(=O)OCC(=O)Nc2nnc(-c3ccccc3)o2)c1C
 : /	-1	3461	-3	-10	6.4	-24
CCCC=C1CCCOC(C(=O)NCc2ccc(C)o2)(C(F)(F)F)C1 (configuration not stated)
 : /	-3	/	16	5	9.2	/
CCC(CC)C(=O)NCCc1ccc(OC)c(OC)c1
 : 0	1	4132	6	8	2.8	-2
CCc1ccc(C(=O)NNC(=S)Nc2ccc(S(N)(=O)=O)cc2)s1
 : 3	/	4067	/	/	/	-30
CCOC(=O)C1(CCOc2ccccc2)CCN(Cc2ccc(C#CCCO)cc2)CC1
 : 7	2	3690	13	7	5.2	-22
O=c1[nH]c(=S)[nH]c(O)c1C(c1ccccn1)c1c(O)[nH]c(=S)[nH]c1=O
 : 3	11	4740	-2	6	5.7	-16
COC(=O)C1=CN(c2ccc(OC)cc2)C=C(C(=O)OC)C1c1ccc([N+](=O)[O-])cc1
 : 9	-2	5112	-12	-12	2.0	0
COC(=O)CSc1nnc(CNS(=O)(=O)c2ccc(Cl)cc2)n1C
 : -2	11	4808	/	/	-1.8	-9
CCOc1ccc(NC(=O)CSc2nc(C)cc(C)n2)cc1
 : 1	2	9852	3	8	0.6	-21
Cc1ccc(NC(=O)CCNS(=O)(=O)c2ccc3c(c2)oc(=O)n3C)c(C)c1
 : 16	0	10089	3	7	-1.2	-51
O=C(NCC1CCCO1)c1ccc2c(=O)n(Cc3cccc(Br)c3)c(=S)[nH]c2c1 (configuration not stated)
 : -8	-3	3802	6	1	15	-23
C/C(N)=C(/C#N)C(=O)CSc1nnnn1-c1ccccc1
 : -5	-4	2802	/	/	0.5	-22
CCCCC(=O)Nc1cccc(NC(=S)NC(=O)COc2ccccc2Cl)c1
 : -14	3	2169	-8	0	3.8	-12
CC(=NNC(=O)c1ccc(C)cc1)C1C(=O)c2ccccc2C1=O
 : /	30	/	-1	-6	41	/
CCCc1[nH]nc2c1C(C1CC=CCC1)C(C#N)=C(N)O2 (configuration not stated)
 : 2	3	2412	6	6	3.9	10
O=C(OCCN1CCCCC1)c1c[nH]c2ccccc12
 : /	-3	4349	5	1	2.5	-26
COCCSc1nnc(NC(=O)c2ccc3c(c2)OCO3)s1
 : -4	13	4468	2	15	12	7

Shown with tabs: entries from further up
structure	BJeLR viability	Sa ugtP lethal	Bead autofluor	Mtb hypoxia rep	Mtb hypoxia rep growth	RN4220 kill	PrP 5UTR inh
CC(=O)c1c(C)[nH]c(C(=O)OCC(=O)Nc2nnc(-c3ccccc3)o2)c1C	/	-1	3461	-3	-10	6.4	-24
CCCC=C1CCCOC(C(=O)NCc2ccc(C)o2)(C(F)(F)F)C1 (configuration not stated)	/	-3	/	16	5	9.2	/
CCC(CC)C(=O)NCCc1ccc(OC)c(OC)c1	0	1	4132	6	8	2.8	-2
CCc1ccc(C(=O)NNC(=S)Nc2ccc(S(N)(=O)=O)cc2)s1	3	/	4067	/	/	/	-30
CCOC(=O)C1(CCOc2ccccc2)CCN(Cc2ccc(C#CCCO)cc2)CC1	7	2	3690	13	7	5.2	-22
O=c1[nH]c(=S)[nH]c(O)c1C(c1ccccn1)c1c(O)[nH]c(=S)[nH]c1=O	3	11	4740	-2	6	5.7	-16
COC(=O)C1=CN(c2ccc(OC)cc2)C=C(C(=O)OC)C1c1ccc([N+](=O)[O-])cc1	9	-2	5112	-12	-12	2.0	0
COC(=O)CSc1nnc(CNS(=O)(=O)c2ccc(Cl)cc2)n1C	-2	11	4808	/	/	-1.8	-9
CCOc1ccc(NC(=O)CSc2nc(C)cc(C)n2)cc1	1	2	9852	3	8	0.6	-21
Cc1ccc(NC(=O)CCNS(=O)(=O)c2ccc3c(c2)oc(=O)n3C)c(C)c1	16	0	10089	3	7	-1.2	-51
O=C(NCC1CCCO1)c1ccc2c(=O)n(Cc3cccc(Br)c3)c(=S)[nH]c2c1 (configuration not stated)	-8	-3	3802	6	1	15	-23
C/C(N)=C(/C#N)C(=O)CSc1nnnn1-c1ccccc1	-5	-4	2802	/	/	0.5	-22
CCCCC(=O)Nc1cccc(NC(=S)NC(=O)COc2ccccc2Cl)c1	-14	3	2169	-8	0	3.8	-12
CC(=NNC(=O)c1ccc(C)cc1)C1C(=O)c2ccccc2C1=O	/	30	/	-1	-6	41	/
